Screening data (PubChem BioAssay)
Bead autofluor – flagged as autofluorescent in microsphere protease counterscreen. 360,000 compounds, 3.1% hits. AID 624483. fluorescence intensity (test concentration not listed). compound autofluorescence counterscreen, microsphere flow cytometry; stronger effect = higher value;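 active = at least 3 SD above the mean of all compounds, about 16000 in these data; inconclusive = too few beads counted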;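 also: 100 nL of 1 mM stock went into each well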
PrP UTR inh – inhibition of PrP 5' UTR reporter expression; inhibition, % (concentration not given with the values); cell-based PrP 5' UTR mRNA reporter, plate reader; 340,000 compounds, 0.35% hits;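 active = every replicate at 50% or more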;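 also: 0 = median of the neutral control wells; tested in H4 reporter cells; numbers are from one replicate; inactives centre near -14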
BJeLR lethal – MLPCN primary cell-based screen for lethality selective to Ras in HRASV12 cells; BJeLR (HRASV12) viability, CellTiter-Glo ATP luminescence, 48 h; reference of the scale not given here; inhibition, % (no concentration beside the values); 300,000 compounds, 0.17% hits; AID 1554, 2009;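 active = replicate mean above 50%; inconclusive = above 50% but judged a plate artefact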;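 also: 50 nL library stock added to about 25 µL; numbers are from one replicate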
Mtb hypoxia rep – PubChem AID 1159583; M. tuberculosis hypoxia-regulated fluorescent reporter, fluorescence; fluorescence inhibition, % (concentration not given with the values); 300,000 compounds, 0.1% hits;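 active = 35 to 45% if threefold the growth effect, above 45% if 1.5-fold the growth effect; inactive = the rest, general growth blockers included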;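 also: wells of about 50 µL received 100 nL stock; 0% = vehicle wells and 100% = reference inhibitor wells; whole bacteria with a GFP reporter of the hypoxia response; strong numbers were not always called active; many hits fall short of the cut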
Sa RN4220 lethal – growth inhibition of S. aureus RN4220, primary screen, OD600 | inhibition, % (no concentration beside the values) | 330,000 compounds, 0.33% hits | 16 h;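 active = z-score of -3 or lower and OD600 up to 0.18 on both plates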;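 also: plate controls were untreated cells for no effect and reference antibiotic for full effect; stock transfer was 100 nL into about 80 µL; one replicate is shown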
Sa ugtP lethal – growth inhibition of ugtP-null S. aureus, primary screen, RN4220 ugtP deletion, OD600; 16 h; some inactives read as strong as hits; growth inhibition, % (no concentration beside the values); 330,000 compounds, 0.54% hits;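 active = z-score under -3 and OD600 up to 0.15 on both plates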;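 also: plate controls were untreated wells for no effect and antibiotic for full effect; wells of about 80 µL received 100 nL stock; the first replicate is given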
Mtb hypoxia rep growth – recorded beside Mtb hypoxia rep, whose call it bears; growth inhibition, %; measured here: M. tuberculosis growth (absorbance);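 0% = vehicle and 100% = reference antibiotic; read after six days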
* = called active by the depositor; ? = inconclusive; . = no result given. Outcome played no part in choosing rows; any-hit rate near 4%.

SMILES	Bead autofluor	PrP UTR inh	BJeLR lethal	Mtb hypoxia rep	Mtb hypoxia rep growth	Sa RN4220 lethal	Sa ugtP lethal
NC(=O)CC(NC(=O)c1cccc(Br)c1)c1ccc(NCCN2CCOCC2)c([N+](=O)[O-])c1 (configuration not stated)	.	.	6	3	3	10	4
CC(C)Cc1ccc(CN2CCCC(NC(=O)CCN3CCCCC3=O)C2)cc1 (configuration not stated)	6718	-6	-1	4	7	1.2	2
O=C1NCN(C2CCCCC2)CN1	4090	0	.	9	7	4.6	4
COC(=O)c1sc2ccccc2c1NC(=O)c1cccs1	10511	-20	-4	4	14	11	0
COc1ccc(S(=O)(=O)NCC(c2ccc3c(c2)OCO3)N2CCN(c3ccccc3)CC2)cc1 (configuration not stated)	5015	-14	-12	-4	-3	-2.2	8
CC1CCN(CC(=O)n2c3c(c4ccccc42)CCCC3)CC1	8225	-4	4	16	9	3.6	7
Cc1cc2c(cc1S(=O)(=O)N1CCN(c3ccccc3F)CC1)OCC(=O)N2	5589	8	8	-7	-2	-2.2	-9
CCOC(=O)C1=C(C)N=c2s/c(=C/c3ccc(OCC(=O)O)c(OC)c3)c(=O)n2C1c1ccc(Cl)cc1 (configuration not stated)	4913	-9	-8	.	.	.	.
COc1cc(C(=O)NCCOc2ccc(F)cc2)c(Br)c(OC)c1OC	2622	-6	3	0	-3	0.4	1
COc1cc(C)ccc1OCc1cc(C(=O)NCCN2CCCC(O)C2)no1 (configuration not stated)	5504	-20	-1	1	-5	1.8	5
COc1ccc(S(=O)(=O)N2CCN(C(=S)NCCc3ccccc3)CC2)cc1	5036	-21	-7	-2	9	1.4	-1
Cc1ccc(S(=O)(=O)Nc2cccc(NC(=O)CN3CCCCC3)c2)cc1	3194	-6	-7	2	11	6.8	31
Cc1cc2ccccc2c(=O)n1CC(=O)NC1CCCCCC1	2984	-9	-2	3	9	1.0	3
CC1=CC(C)(C)N(S(=O)(=O)c2ccc(C)cc2)c2ccc(C)cc21	10300	-37	29	1	7	2.5	80
O=C(CCN1C(=O)C2CCCCC2C1=O)Nc1ccc(Br)cc1F (configuration not stated)	6266	-7	-13	-6	1	-1.5	-5
CCc1cc(C(=O)N2CCN(c3ncccn3)CC2)sc1C	?	6	4	-14	-1	0.7	-1
O=C(CN1C(=O)C2CC=CCC2C1=O)OCc1cc(=O)n2cc(Br)ccc2n1 (configuration not stated)	4203	-36	-1	2	-1	1.1	1
C[C@]12CC[C@@H]3c4ccc(O[C@@H]5O[C@H](C(=O)O)[C@@H](O)[C@H](O)[C@H]5O)cc4CC[C@H]3[C@@H]1C[C@@H](O)[C@@H]2O	4411	-6	9	.	.	.	.
O=C(Nc1ccc(-c2nc3ccccc3s2)c(OC(=O)c2ccccc2)c1)c1ccccc1	2592	-28	14	-4	1	-0.2	4
Cc1nn(Cc2cccc(C(=O)Nc3ccn(Cc4ccccc4F)n3)c2)c(C)c1[N+](=O)[O-]	10713	-14	7	4	8	1.1	1
O=C(NC1CCCC1)C(c1cccnc1)N(Cc1ccccc1)C(=O)c1csnn1 (configuration not stated)	3682	3	-2	-10	5	6.7	-13
CCN(CC)S(=O)(=O)c1ccc2c(c1)nc(SC(C)C(=O)NCC1CCCO1)n2CC (configuration not stated)	5856	-9	2	2	1	5.0	2
Cc1c(NC(=O)COC(=O)c2ncc(Cl)c(Cl)c2Cl)c(=O)n(-c2ccccc2)n1C	5470	-16	-4	4	8	3.6	7
O=c1[nH]c(=S)[nH]cc1Oc1ccccc1	3832	-33	.	5	5	1.6	-3
C=CCNC(=O)c1ccc(CN(c2ccc(OCC)cc2)S(=O)(=O)c2ccc(C)cc2)cc1	3861	-18	3	-10	4	6.3	24

Look-ups from the results shown:
Entry of CC(C)Cc1ccc(CN2CCCC(NC(=O)CCN3CCCCC3=O)C2)cc1 (configuration not stated) under Mtb hypoxia rep growth: 7
Entry of Cc1nn(Cc2cccc(C(=O)Nc3ccn(Cc4ccccc4F)n3)c2)c(C)c1[N+](=O)[O-] under PrP UTR inh: -14
Entry of Cc1c(NC(=O)COC(=O)c2ncc(Cl)c(Cl)c2Cl)c(=O)n(-c2ccccc2)n1C under Mtb hypoxia rep growth: 8

Further results follow:
SMILES	Bead autofluor	PrP UTR inh	BJeLR lethal	Mtb hypoxia rep	Mtb hypoxia rep growth	Sa RN4220 lethal	Sa ugtP lethal
COc1ccc(/C=N/n2cnc3c([nH]c4ccc(F)cc43)c2=O)cc1CN1CCCC1	6958	-19	48	.	.	.	.
CCc1ccc(C(=O)Nc2cc3c(cc2Cl)OCCCO3)cc1	?	-58	2	15	6	3.5	11
O=c1c2ccccc2nc2n1-c1ccccc1CCC2	4897	33	.	3	4	6.8	6
CCc1ccc(N=c2c([N+](=O)[O-])nn(-c3ccc4c(c3)OCCO4)n2O)cc1	2495	-3	0	1	0	-6.1	13
O=C(Nc1cccc(S(=O)(=O)N2CCCCC2)c1)C1CCCC1	6222	-16	.	0	-1	6.0	5
CCOC(=O)c1cc(CC)sc1NC(=O)COC(=O)c1cc[n+]([O-])cc1	4578	-17	-8	7	9	1.9	10
COc1ccccc1N1C(=O)c2cccc3cccc(c23)C1=O	4216	-14	6	21	5	0.3	1
COc1cc([N+](=O)[O-])ccc1NC(=O)CSc1nccn1C	3848	9	-14	13	9	-0.9	6
N/C(=N\OC(=O)COc1ccc2ccccc2c1)c1ccncc1	4614	-32	4	0	-5	4.0	-6
COC(=O)c1ccccc1NC(=S)NC(=O)c1ccccc1	3226	-3	1	7	5	6.4	3
O=C(COc1ccc(F)cc1Br)NCC1COc2ccccc2O1 (configuration not stated)	7465	-19	.	1	1	3.5	-13
COc1cc2c(cc1OC)C13CCN4CC5=CCOC6CC(=O)N2C1C6C5CC43 (configuration not stated) (tested in a mixture with another compound)	4314	-2	-2	.	.	2.2	10
Cc1nccc(-c2cccc(NC(=O)Nc3ccc(Cl)cc3)c2)n1	4401	-24	-9	-14	-7	6.3	-16
O=C(Nc1cc(Cl)ccc1-n1cncn1)c1ccc([N+](=O)[O-])o1	7020	-2	9	11	3	71	82
C/C(=N/NS(=O)(=O)c1ccc(C)c(C)c1)c1ccncc1	5497	-11	-10	.	.	.	.
O=c1c(Cl)c2oc3ccccc3nc-2c2ccccc12	6118	-26	6	19	26	81	39
CN1CC[C@@]2(C)c3cc(O)ccc3N(C)C2O1 (some centres not stated)	4712	-13	-3	.	.	.	.
O=C1N=C(N2CCN(c3cccc4ccccc34)CC2)S/C1=C/c1cccs1	2162	-19	4	.	.	-5.2	-16
CCn1cc(S(=O)(=O)CC(=O)Nc2ccc(C)cc2)c2ccccc21	8857	-27	3	13	11	3.8	5
COc1ccccc1CC1(C)NC(=O)N(CC(=O)N2CCc3ccccc3C2)C1=O (configuration not stated)	?	0	-3	8	14	8.3	12
O=C(O)c1ccc(C=NNC(=S)NC2CCCCC2)cc1	.	.	.	20	13	0.2	6
Cc1cccc(CNC(=O)c2ccc3nc(Cc4ccccc4F)oc3c2)n1	6606	-79	-2	7	1	1.1	7
COc1cccc(/C=C/C(=O)c2ccc3c(c2)OCO3)c1OC	3783	-24	.	11	14	3.8	9
Cc1ccc(Cl)cc1N1CCN(CC(=O)Nc2ccc(CN3CCCCC3)cc2)CC1	2872	-13	-12	17	24	-6.4	-11
C=CC(=O)NC(C)(C)CCN1CCOCC1	3900	-19	8	7	1	7.2	4

The results go on.
SMILES	Bead autofluor	PrP UTR inh	BJeLR lethal	Mtb hypoxia rep	Mtb hypoxia rep growth	Sa RN4220 lethal	Sa ugtP lethal
CC(=O)Nc1cccc(C(C)=NNC(=O)c2ccc(CN3CCOCC3)cc2)c1	.	.	.	7	11	1.8	2
CCOC(=O)CCNCC1COc2ccccc2O1 (configuration not stated)	4076	-6	-1	.	.	-6.8	14
CCCn1c(=NC(=O)c2ccncc2)c(C#N)cc2c(=O)n3cccc(C)c3nc21	6114	-8	.	8	12	5.6	7
CN1CCc2c(sc(/N=C/c3cc(C(C)(C)C)ccc3O)c2C#N)C1	5724	-32	9	.	.	.	.
O=C(COC(=O)Cn1cnc2ccccc2c1=O)NCCC1=CCCCC1	2061	3	3	4	7	6.1	2
Cc1ccc(C)c(SCC(=O)OCC(=O)NCc2ccccc2)c1	2688	-16	13	14	1	6.6	3
Cc1sc2ncnc(N3CCC(C(=O)N(C)CC(=O)Nc4ccccc4Br)CC3)c2c1C	7467	5	-1	9	2	1.9	-3
CC1=C(C)CC(C(=O)c2ccccc2)C(C(=O)O)C1 (configuration not stated)	10500	-30	6	17	3	5.2	3
COc1ccccc1NC(=O)C(C/C=C(/C)Cl)C(C)=O (configuration not stated)	8901	-13	0	11	13	-0.2	1
Nc1nnc(SCc2ccccc2F)s1	?	-19	-15	-4	-6	1.9	7
O=C(c1ccc(Br)o1)N1CCN(C/C=C/c2ccccc2)CC1	9557	-24	-4	4	4	-2.8	-3
O=C(OCc1cc(=O)n2ccsc2n1)c1ccc(OC(F)F)cc1	4978	-10	.	0	3	3.5	1
O=C(COC(=O)c1ccccc1NCCO)Nc1cccc(S(=O)(=O)NC2=NCCCCC2)c1	?	-30	2	7	-1	4.4	2
Cc1cccc(N2C(=O)CC(N3CCC(c4nc5ccccc5[nH]4)CC3)C2=O)c1 (configuration not stated)	6007	-26	-12	7	9	3.3	2
Cc1cc(-c2onc(C)c2C(=O)Oc2ccc(Cl)cc2)no1	4647	-7	-2	2	16	7.0	18
O=C1CC(C(=O)O)S/C(=N\N=Cc2ccc(Br)cc2)N1 (configuration not stated)	.	.	.	4	-4	9.0	5
C[C@H](CO)N1C[C@H](C)[C@@H](CN(C)S(=O)(=O)c2ccc(F)cc2)Oc2ccc(NC(=O)NC3CCCCC3)cc2C1=O	3887	-28	.	-8	11	-1.5	1
COc1ccc(CC(=O)NCc2cn3ccsc3n2)cc1	3379	-4	-13	3	6	2.2	-6
COc1cc(C=NNC(=O)C(NC(=O)c2ccccc2)c2n[nH]c(=O)c3ccccc23)ccc1OCC(N)=O (configuration not stated)	.	.	.	-2	-6	2.3	1
Cc1[nH]c(SCC(=O)Nc2cc(C(N)=O)cc(C(N)=O)c2)nc1Cc1ccccc1	3147	-7	.	10	7	7.4	-2
Cc1noc(C)c1COc1ccc(C(=O)N2CCN(c3ccccc3F)CC2)cc1	5047	-13	-8	-4	2	3.6	2
CCn1ncc(Br)c1C(=O)Nc1cc([N+](=O)[O-])ccc1C	2597	-15	1	-12	4	-4.3	-5
Cc1ccc(Sc2c(C=O)c3ccccc3n2C)cc1	2860	-8	1	-8	1	17	25
O=C1c2ccccc2C(=O)N1Cc1cc(-c2ccc(Cl)cc2)no1	10240	-14	5	-4	-9	4.7	18
CCCSc1ncc(Cl)c(C(=O)Nc2ccc(S(=O)(=O)Nc3ncccn3)cc2)n1	4906	-14	-14	5	10	-2.6	-3

Next part
SMILES	Bead autofluor	PrP UTR inh	BJeLR lethal	Mtb hypoxia rep	Mtb hypoxia rep growth	Sa RN4220 lethal	Sa ugtP lethal
CC(C)(CO)NCC(O)COc1ccc2c(c1)CCC2 (configuration not stated)	2553	-21	-4	1	2	5.7	11
CC(C)S(=O)(=O)N1CCCC(C(=O)c2cccc(Cl)c2)C1 (configuration not stated)	4074	-2	13	0	0	7.7	8
CSc1nc(N(C)C)nc(N2CC(=O)N(CCNS(=O)(=O)c3ccc(C)cc3)C2=N)n1	2572	-10	0	0	7	5.1	5
COc1ccc(OC)c(NC(=O)C2CCCC2)c1	9595	-14	-2	3	-1	5.0	0
O=C(Oc1cccc([N+](=O)[O-])c1)c1cc(-c2ccccc2)nc2ccccc12	10694	-9	-3	8	0	6.0	-9
Cc1cc2nc(C)n(CCCN)c2cc1C	22118*	-11	6	18	9	2.8	-2
O=C(Cn1[nH]c(=O)c2ccccc2c1=O)N1CCN(S(=O)(=O)c2ccc(Cl)cc2)CC1	3739	-8	.	-4	0	1.4	2
CC(=O)c1c(C)[nH]c(C(=O)CSc2ccc(F)cc2)c1C	4732	-62	-7	-11	6	4.7	-6

Just Sa ugtP lethal and Bead autofluor, for 2 of the compounds above:
molecule,Sa ugtP lethal,Bead autofluor
O=C(c1ccc(Br)o1)N1CCN(C/C=C/c2ccccc2)CC1,-3,9557
COc1cccc(/C=C/C(=O)c2ccc3c(c2)OCO3)c1OC,9,3783
